From PubChem
hNpr1 antagonist – blocks ANP-stimulated signaling of human Npr1 receptor; P16066; HEK293 hNpr1 GloSensor cGMP, ANP-stimulated luminescence; Potency, µM (top dose mostly 46.3 µM), for the others: at the highest dose activity change, negative = inhibition, hits mostly inhibitors; actives 1.6% (n = 76,000); AID 1347048; active = well fitted inhibition curve with a large enough effect; inconclusive = small, poorly fitted or top-dose-only effect; inactive = no such curve, though single readings can be large or run the other way;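 also: nearly all actives have a fitted effect of over 60% in size; nearly all hits also lower the signal before the agonist is added; a reference antagonist and vehicle were the controls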
Target sequence (P16066 whole entry, looked up): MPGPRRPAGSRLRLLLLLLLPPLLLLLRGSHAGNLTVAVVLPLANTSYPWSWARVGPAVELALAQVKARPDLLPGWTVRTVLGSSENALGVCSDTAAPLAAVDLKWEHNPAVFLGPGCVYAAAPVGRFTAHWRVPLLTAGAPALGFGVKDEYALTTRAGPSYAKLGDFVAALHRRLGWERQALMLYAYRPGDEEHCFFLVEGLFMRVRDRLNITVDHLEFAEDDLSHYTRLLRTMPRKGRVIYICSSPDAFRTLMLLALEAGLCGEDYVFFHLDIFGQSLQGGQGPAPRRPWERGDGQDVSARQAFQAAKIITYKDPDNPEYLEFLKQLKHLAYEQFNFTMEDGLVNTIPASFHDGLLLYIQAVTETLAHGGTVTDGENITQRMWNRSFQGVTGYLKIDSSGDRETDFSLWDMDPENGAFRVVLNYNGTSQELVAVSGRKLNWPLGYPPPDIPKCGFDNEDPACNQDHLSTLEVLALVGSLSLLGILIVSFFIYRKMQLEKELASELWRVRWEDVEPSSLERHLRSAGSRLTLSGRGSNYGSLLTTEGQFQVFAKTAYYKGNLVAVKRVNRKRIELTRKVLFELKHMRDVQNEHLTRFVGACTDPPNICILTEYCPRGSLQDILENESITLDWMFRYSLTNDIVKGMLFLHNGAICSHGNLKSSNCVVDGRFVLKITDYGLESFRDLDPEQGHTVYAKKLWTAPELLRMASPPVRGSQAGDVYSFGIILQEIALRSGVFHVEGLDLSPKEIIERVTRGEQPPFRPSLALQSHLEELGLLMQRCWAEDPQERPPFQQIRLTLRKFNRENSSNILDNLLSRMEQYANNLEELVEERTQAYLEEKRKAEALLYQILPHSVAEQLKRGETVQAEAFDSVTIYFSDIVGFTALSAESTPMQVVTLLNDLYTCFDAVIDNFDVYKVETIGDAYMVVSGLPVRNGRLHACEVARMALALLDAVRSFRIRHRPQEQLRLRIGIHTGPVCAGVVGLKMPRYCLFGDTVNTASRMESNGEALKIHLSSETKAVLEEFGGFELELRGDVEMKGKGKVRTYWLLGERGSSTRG
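HEK293 cells stably expressing human Npr1 and cGMP GloSensor pGS-40F, loaded 2 h with 2% GloSensor reagent, given compound 30 min at room temperature. Luminescence read before and 20 min after 0.1 nM hNppA.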
* = called active by the depositor; ? = inconclusive; [ ] = another dose, or the depositor's remark. % is scaled to controls: 0 for no effect and ±100 for the full control effect; potency is read from the fitted curve at half-maximal effect. A portion of the library (hit frequency here may not be typical).

entry | SMILES | hNpr1 antagonist
1 | C=CCc1ccccc1OCCN(C)Cc1ccc(S(C)(=O)=O)cc1 | -12.7%
2 | O=C(N[C@@H]1CCOC[C@H]1Oc1cccc(F)c1)c1cnc2c(c1)CCC2 | -3.3%
3 | O=C1CC(c2ccccc2)N(S(=O)(=O)c2cccc(F)c2)CCCCCCN1 (stereo unspecified) | -10.4%
4 | Cc1nc(C)c(C(=O)NC2CCN(C(=O)N3CC4CC(C3)[C@H]3CCCC(=O)N3C4)CC2)s1 (stereo partly specified) | -1.8%
5 | O=C(NCCC1CCN(C(=O)Nc2ccc(F)cc2F)CC1)c1cccs1 | -10.1%
6 | Cn1c(CCNC(=O)CC2CCOCC2)nc2ccccc21 | -1.1%
7 | CCCC(C)N1CC2(CCN(C(=O)c3cnc(C)cn3)CC2)OC1=O (stereo unspecified) | -1.6%
8 | O=C(COc1ccccc1)N1CC(Oc2ccc(-c3noc(C4CCOCC4)n3)cc2)C1 | ?
9 | Cc1cc2nc3n(c(=O)c2n1CC(=O)Nc1ccc(Cl)cc1F)CCCCC3 | -3.2%
10 | COc1cc(CNc2nccc3c(=O)cc(N4CCOCC4)oc23)cc(OC)c1 | -1.7%[70.6 µM]
11 | COc1ccc(CN2CC3(CCN(C(=O)c4ccc(C)cc4C)CC3)C2=O)cc1 | -25.4%
12 | Cc1ccn(CC(=O)N2CCC3(CCCN(CCCc4ccccc4)C3)C2)n1 (stereo unspecified) | 0.0%
13 | CCC(=O)N1CCC(Cc2ncc(C)n2CC2CC2)CC1 | 3.1%
14 | CCOc1cccc(-c2nnc(CCC(=O)NCCCc3ccccc3)c(=O)[nH]2)c1 | -1.9%
15 | Cc1ccc(CN2CCCN(S(=O)(=O)c3ccccc3)CCC(=O)NCC2)o1 | -0.1%
16 | COc1ccc(NC(=O)C2CCN(C(=O)c3ncn4c3COC(c3ccccc3)C4)CC2)cc1OC (stereo unspecified) | -2.1%
17 | Cc1noc(C)c1C(=O)NCC(=O)N1CCCCCNC(=O)CC1c1ccccc1 (stereo unspecified) | 4.8%
18 | CC(=O)Nc1ccc(C2(C(=O)NCc3cccs3)CCCCC2)cc1 | 3.0%
19 | CNC(=O)Nc1ccc(C)n(CC(=O)NCc2ccc(Cl)cc2)c1=O | -0.5%
20 | CN1C[C@H](O)C[C@H]1c1nc(-c2ccc3c(c2)OCO3)no1 | -13.6%[70.6 µM]
21 | CN(CCc1ccccn1)C(=O)CCC[C@@H]1[C@H]2CCCN3CCC[C@@H](CN1C(=O)c1cccnc1)[C@@H]23 | 1.6%
22 | COc1ccccc1CC(=O)N1CCCN(CCc2ccccc2)c2ccccc21 | -10.9%
23 | COc1cccc(CNC(=O)CN2C(=O)NC(c3ccc(Cl)cc3)C3=C2COC3=O)c1OC (stereo unspecified) | -1.5%
24 | CCCc1nnsc1C(=O)N[C@@H]1CCOC[C@H]1Oc1ccccn1 | -1.1%
25 | O=C1CCCCC(C(=O)NCCc2ccncc2)N1 (stereo unspecified) | 2.1%
26 | Cc1nn(-c2ccc(C(F)(F)F)cc2)c(C)c1[C@@H]1C=C[C@@H](NC(=O)c2cccs2)C1 | -10.7%[70.6 µM]
27 | COCCC(=O)N1CCc2oc(C)c(C(=O)N(C)C)c2C1 | 6.4%
28 | COc1ccc(-c2ccc3ncc(Nc4ccc(C(N)=O)cc4)n3n2)cn1 | -1.8%[70.6 µM]
29 | O=C(c1cn2ccsc2n1)N1CCC2(CCNCC2)CC1 | 0.9%
30 | O=C(NC1CCCCC1)N1CCCC(c2noc(COc3ccccc3F)n2)C1 (stereo unspecified) | -19.9%
31 | O=C(NC[C@H]1O[C@@H](CO)[C@@H](O)[C@H]1N1CCN(c2ccccn2)CC1)c1ccccc1 | 3.4%
32 | COCC[C@]1(O)CCN(C(=O)c2cccc(OCC(N)=O)c2)C[C@H]1C | 4.6%
33 | Cn1nc2n(c1=O)CCN(C(=O)c1ccncn1)CC2 | 3.5%
34 | O[C@H]1CC[C@@H](Cc2cc(CN3CCCCC3)on2)O[C@@H]1CNCc1cccnc1 | 0.6%[70.6 µM]
35 | Cc1ccc(-c2nnc(C3CN(C(=O)c4cccs4)CC34CCOCC4)o2)cc1 (stereo unspecified) | 5.7%
36 | Cc1cnc(CCNC(=O)Nc2ccc3c(c2)OCCO3)n1Cc1ccc(F)cc1 | -29.3%
37 | O=C(c1cccc(Cl)c1)N1CCN(c2nc3ncccc3o2)CC1 | -8.4%
38 | c1c[nH]c(CNC[C@H]2Cn3ccnc3CO2)n1 | -0.4%[70.6 µM]
39 | N#Cc1ccc2nc([C@H]3CCN(Cc4ccccn4)C3)[nH]c2c1 | 4.4%[70.6 µM]
40 | Cc1ccc(CN(C(=O)c2ccco2)c2ccc(CC(=O)N(C)Cc3ccccc3)cc2)cc1 | -20.3%
41 | CN1CCN(c2nc(C(=O)NC(C)(C)C)cs2)CC1 | 5.5%
42 | COc1cc(C)c(-c2nc(CN3CCN(C)C(=O)C3)c(C)o2)cc1C | 1.5%
43 | O=C(NCC1CCOCC1)Nc1ccc(Cl)cc1C(F)(F)F | 3.5%
44 | COc1cccc(Cc2nc(C3CC(=O)N(C4CCCCC4)C3)no2)c1 (stereo unspecified) | -5.4%
45 | CC(C(=O)NCc1cccc(F)c1)C1CCOCC1 (stereo unspecified) | 0.0%
46 | O=C(Cn1cccc1-c1nc(-c2ccccc2)no1)Nc1cc(F)cc(F)c1 | -2.2%
47 | Cc1ccc(-c2noc(-c3nc(-c4cccnc4)no3)n2)cc1 | -0.1%
48 | COc1ccc(OC)c(NC(=O)N2CCCN(C)c3ccccc32)c1 | ?
49 | COCc1nc(CCNC(=O)C2CC2)no1 | 0.0%
50 | Cc1cccc(OCC2(CNC(=O)c3cccnc3)C[C@@H](O)[C@@H](O)C2)n1 (stereo partly specified) | 1.4%[70.6 µM]
51 | OCCCn1cnc(-c2ccccc2)c1-c1ccc(-c2ccn[nH]2)o1 | -12.4%
52 | CC(=O)N(C1CC1)C1CCOC2(CCN(C(=O)c3cc(-c4ccccc4)n[nH]3)CC2)C1 (stereo unspecified) | -2.2%
53 | COc1ccc(OC)c(C(O)Cn2ccn3nc(-c4cccs4)cc3c2=O)c1 (stereo unspecified) | -14.1%
54 | COc1ccccc1-n1nc(-c2c(C)nc3scc(CC(=O)NCCC(C)C)n3c2=O)cc1C | -1.0%
55 | COc1ccc(C(=O)N2CCC3(CC2)CC(OCC2CC2)CCO3)cc1OC (stereo unspecified) | -13.2%
56 | CCOc1cc(C(=O)N2CCC(Cc3nc(-c4ccccc4)no3)CC2)cc(OCC)c1OCC | 3.6%
57 | O=C(NC1CCCN(c2cc(-c3ccccc3)[nH]n2)C1)c1cc(F)ccc1Cl (stereo unspecified) | -4.0%
58 | O=C(OCc1ccccc1)N1CCC2(CC1)C(=O)NN=C2c1cccnc1 | ?
59 | COC[C@@H]1CN(Cc2ccccn2)C[C@H]1C(=O)NC1CC1 | -0.3%
60 | Cc1cccc(CN2CCCN(S(C)(=O)=O)C(c3ccccc3)CC(=O)NCC2)c1 (stereo unspecified) | 4.0%

Arranged by SMILES length (ascending): six of the compounds above.
entry | SMILES | hNpr1 antagonist
6 | Cn1c(CCNC(=O)CC2CCOCC2)nc2ccccc21 | -1.1%
29 | O=C(c1cn2ccsc2n1)N1CCC2(CCNCC2)CC1 | 0.9%
18 | CC(=O)Nc1ccc(C2(C(=O)NCc3cccs3)CCCCC2)cc1 | 3.0%
55 | COc1ccc(C(=O)N2CCC3(CC2)CC(OCC2CC2)CCO3)cc1OC (stereo unspecified) | -13.2%
9 | Cc1cc2nc3n(c(=O)c2n1CC(=O)Nc1ccc(Cl)cc1F)CCCCC3 | -3.2%
14 | CCOc1cccc(-c2nnc(CCC(=O)NCCCc3ccccc3)c(=O)[nH]2)c1 | -1.9%

The list continues.
entry | SMILES | hNpr1 antagonist
61 | CN(C)c1ccc(C(=O)NCC2CCN(c3cc(-c4ccc(F)cc4)[nH]n3)CC2)cc1 | -23.2%
62 | O=C(N[C@@H]1CNC[C@H]1CO)C1CCC1 | -14.3%
63 | Cc1nc(-c2ccc(OC3CCN(C(=O)CCc4nc5ccccc5[nH]4)C3)cc2)no1 (stereo unspecified) | 9.3%
64 | CC(C)n1c(C2CCCN(C(=O)CCc3ccccc3)C2)nn(C)c1=O (stereo unspecified) | -3.2%
65 | CCOCCOC1CCN(C(=O)c2cccc3[nH]ccc23)CC1 | -1.3%
66 | NCCn1cc(C(=O)NCCS(=O)(=O)N2CCCC2)nn1 | 6.8%
67 | Cc1nc([C@@H]2CN(C3CCN(CCc4ccccc4)CC3)C[C@H]2C(N)=O)n[nH]1 | 4.3%
68 | Cc1cnc(C(=O)N[C@@H]2CCC[C@@H]2C(=O)N2CCN(c3ncccn3)CC2)cn1 | 9.8%
69 | CCCc1nnc(NC(=O)C2CC(=O)N(c3n[nH]c4cccc(F)c34)C2)s1 (stereo unspecified) | -1.3%
70 | CC(C)NC(=O)CN1C(=O)C(c2ccccc2)=NC12CCCCC2 | -1.2%
71 | COc1cccc(CC(=O)N2CC(C(=O)NCCc3ccncc3)C3(CCOCC3)C2)c1 (stereo unspecified) | -1.7%
72 | Cc1nonc1CC(=O)N1CCc2ncnc(N3CC=CC3)c2CC1 | -17.0%
73 | COc1ccc(-c2noc([C@@H]3CCCN3C(=O)c3ccc(C)c(C)c3)n2)cc1 | -14.7%
74 | COc1cccc(CC(=O)N2CCCN(S(C)(=O)=O)C(c3ccccc3)CC(=O)NCC2)c1 (stereo unspecified) | 3.8%
75 | COc1cc(CN2CCC3(CC2)CC(O)CCO3)ccc1F (stereo unspecified) | -4.6%
76 | COc1ccc(C(=O)N2CCN(C(=O)c3nnn4c3COC(c3ccc(Cl)cc3)C4)CC2)cc1F (stereo unspecified) | ?
77 | Cc1noc(C)c1CNC(=O)CC(C)(C)C | 0.8%
78 | CN1CCCN(C(=O)c2ccco2)c2ccccc21 | 2.3%
79 | Cc1nc2cccnc2n1CC1CCCN(C(=O)Nc2cccc(Cl)c2)C1 (stereo unspecified) | -3.2%
80 | O=C(N[C@@H]1CN(C(=O)Nc2cccc(C(F)(F)F)c2)CCC[C@H]1O)c1ccc(OCc2ccccc2)cc1 | 2.4%
81 | CCOc1ccc(-c2noc(-c3nc(CC)no3)n2)cc1 | -12.9%
82 | CNC(=O)CCn1ncc2cc(OCc3ccccc3-c3cccc(OC)c3)ccc21 | -12.1%[70.6 µM]
83 | CC(C)c1nc(C2Cc3ccccc3N2C(=O)NC2CCCC2)no1 (stereo unspecified) | ?
84 | COCc1cc(C[C@@H]2C[C@H](NS(=O)(=O)c3ccccc3)C2(C)C)no1 | -1.6%[70.6 µM]
85 | Cc1cc(C(=O)N2CC3CC(C2)[C@H]2CCCC(=O)N2C3)n(C)n1 (stereo partly specified) | 2.4%
86 | Cc1noc(-c2ccccc2Cl)c1C(=O)NC(C)c1ccccc1 (stereo unspecified) | 4.9%
87 | O=C(NCCc1cnc[nH]1)C1CCCN(C2CCOCC2)C1 (stereo unspecified) | 4.7%
88 | Cc1ccc(CNC(=O)CN2C(=O)NC3(CCOCC3)C2=O)cc1 | 15.8%
89 | CCc1noc([C@@H]2CC(F)(F)CN2C(=O)c2ccnn2C)n1 | 0.1%
90 | O=C(NC1CCN(c2cc(-c3cccs3)[nH]n2)CC1)c1cc(Cl)ccc1F | -21.7%
91 | FC(F)(F)c1ccc(CN2CC[C@H](c3nnc(-c4ccccc4)o3)C2)cc1 | ?
92 | COCc1ccc2c(c1)c(OC(C)(C)C(=O)NC1CCN(C)CC1)nn2CCC(C)C | 2.6%[70.6 µM]
93 | COCCOC1CN(C2CCN(C(=O)C3CCOCC3)CC2)C12CCCCC2 (stereo unspecified) | 0.6%
94 | Cc1ccc(C2Cn3nnc(C(=O)N4CCN(C(=O)c5ccc(C(C)(C)C)cc5)CC4)c3CO2)cc1 (stereo unspecified) | -12.7%
95 | COc1ccc(C(=O)Nc2ccc(-c3noc([C@@H]4CCCN4CC4CCCCC4)n3)cn2)cc1 | 10µM*
96 | O=C(c1ccc(Cl)nc1)N1CCc2nc(-c3ccccc3)nc(-c3ccc(Cl)cc3)c2C1 | 0.9%
97 | CCc1nc(C)sc1CN1CCCn2nc(CCC(=O)O)cc2C1 | -0.6%
98 | O=C(NCc1ccc(Br)cc1)c1nnn2c1COC(c1ccc(Cl)cc1)C2 (stereo unspecified) | -17.3%
99 | Cc1nc(C(=O)N2CC[C@H](NS(=O)(=O)c3cn(C)cn3)C[C@H]2C(=O)N[C@H](Cc2ccccc2)C(N)=O)cs1 | 2.0%
100 | COc1ccc(C2Cn3cnc(C(=O)N4CCC(C(=O)Nc5ccc(Cl)cc5)CC4)c3CO2)cc1 (stereo unspecified) | -26.0%
101 | CCOc1ccc(C(=O)N2CCN(C3CCN(C)C3=O)CC2)cc1OCC (stereo unspecified) | 1.2%
102 | CC(C)CCNC(=O)c1ccc2c(c1)CC(=O)N2Cc1ccccc1 | -0.4%
103 | O=C(Cc1ccc(F)cc1)N1CCN(C(=O)c2nnn3c2COC(c2ccccc2)C3)CC1 (stereo unspecified) | -10.2%
104 | CSCC(=O)N1C[C@@H](NC(=O)NC(C)C)C[C@H]1C(=O)N(C)CC(N)=O | 7.6%[70.6 µM]
105 | COc1ccc2c(c1)cc(C(=O)N1Cc3[nH]cnc3CC1C(=O)O)n2C (stereo unspecified) | 9.9%
106 | O=c1c2c(nc3cc(-c4ccccc4)[nH]n13)CCN(S(=O)(=O)c1ccccc1Cl)C2 | -5.8%
107 | Cc1ccc(NC(=O)N2CCC(CCNC(=O)C3(c4ccccc4)CC3)CC2)cc1F | ?
108 | CC(c1cccs1)N(C)C(=O)c1ccccc1Cl (stereo unspecified) | -1.5%[70.6 µM]
109 | Cc1cn2nc(C(=O)Nc3ccc(Cl)cc3C)cc2c(N(C)Cc2ccccc2)n1 | 0.4%
110 | COc1ccc(-c2noc([C@@H](C)NCC3CCCCC3)c2C(=O)O)cc1 | -1.2%[70.6 µM]
111 | COCCNc1ncccc1-c1noc([C@@H]2CCCN2Cc2cc(OC)c(OC)c(OC)c2)n1 | -13.7%
112 | COc1ccc(NC(=O)CCn2cnnn2)cc1NC(=O)c1ccccc1 | 2.5%
